VDR inh: Inhibitors of the vitamin D receptor (VDR): qHTS; VDR-SRC2-3 peptide fluorescence polarization, 2 h; Potency, µM, without a hit: max response, negative = inhibition, actives largely listed as inhibitors; AID 504847, 2011; 0.93% of 400,000 active; Vitamin D3 receptor (Homo sapiens), P11473; active = well fitted inhibition curve with a large enough effect; inconclusive = small, poorly fitted or top-dose-only effect, or another doubt; inactive = no such curve, though single readings can be large or run the other way; note: series mostly up to about 120 µM
Target sequence (P11473 whole entry, looked up): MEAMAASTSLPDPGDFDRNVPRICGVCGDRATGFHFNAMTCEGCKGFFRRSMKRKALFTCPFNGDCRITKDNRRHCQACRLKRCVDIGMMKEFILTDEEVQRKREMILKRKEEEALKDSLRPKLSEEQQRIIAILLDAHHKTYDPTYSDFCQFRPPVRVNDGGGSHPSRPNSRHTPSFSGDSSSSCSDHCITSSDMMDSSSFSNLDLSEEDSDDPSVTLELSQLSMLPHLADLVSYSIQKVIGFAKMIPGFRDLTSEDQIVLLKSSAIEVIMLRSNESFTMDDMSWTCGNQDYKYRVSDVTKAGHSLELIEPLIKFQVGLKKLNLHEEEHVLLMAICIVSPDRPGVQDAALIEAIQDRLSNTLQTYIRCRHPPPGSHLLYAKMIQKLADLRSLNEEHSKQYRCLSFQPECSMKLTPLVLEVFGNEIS
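After 23 nl compound addition and a short centrifugation, plates sat for 2 hours at ambient temperature; polarization of fluorescence then indicated loss of VDR binding to peptide SRC2-3.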
* = called active by the depositor; ? = inconclusive; & = joins results of further samples. % is set by controls: 0 for no effect and ±100 for the full control effect; potency is the fitted concentration of half-maximal effect.

The first four records as a preview:
VDR inh	Compound
12%	CC(C)(C)n1ncc2c(=O)n(CC(=O)Nc3ccccc3)cnc21
1%	C/C(N)=C(/C#N)C(=O)CSc1ccccc1F
-8%	O=C(NCc1ccccc1)c1c(O)c2ccccc2[nH]c1=O
-1%	Cc1ccc(CNC(=O)Cn2cc(S(=O)(=O)Cc3ccccc3Cl)c3ccccc32)cc1

Main list, repeating the preview:
VDR inh	Compound
12%	CC(C)(C)n1ncc2c(=O)n(CC(=O)Nc3ccccc3)cnc21
1%	C/C(N)=C(/C#N)C(=O)CSc1ccccc1F
-8%	O=C(NCc1ccccc1)c1c(O)c2ccccc2[nH]c1=O
-1%	Cc1ccc(CNC(=O)Cn2cc(S(=O)(=O)Cc3ccccc3Cl)c3ccccc32)cc1
5%	NC(=O)C1CCN(C(=O)c2ccc3c(=O)n(Cc4cccc(Br)c4)c(=S)[nH]c3c2)CC1
-25%	Cc1cc(N2CCC(C(=O)NCCC(C)C)CC2)n2nc(C)c(-c3ccc(Cl)cc3)c2n1
-14%	CC(C)CNS(=O)(=O)c1ccc(CCC(=O)Nc2ccc3c(c2)OCO3)cc1
-3%	COc1ccc(C)cc1S(=O)(=O)N(C)CC(=O)N1CCCCCC1
-16%	CN(Cc1cnccn1)Cc1c(C(=O)N2CCc3ccccc3C2)nc2ccc(Cl)cn12
16%	Cc1ccc(Cn2ccc(NC(=O)c3cc(-c4ccc(Br)cc4)on3)n2)cc1

VDR inh	Compound
45µM*	CN1CSC2=C(C#N)C(c3cccc(OCc4ccccc4)c3)CC(=O)N2C1 (stereo not drawn)
?	Cc1[nH]c(C)c(C(=O)/C=C/c2ccc([N+](=O)[O-])cc2)c1C
2%	CC(C)(C)c1ccc(OCCNC(=S)Nc2ccccc2)cc1
10%	Cc1ccc(NC(=O)C2CCCN2S(=O)(=O)c2ccc3nc(-c4ccccc4)[nH]c3c2)cc1F (stereo not drawn)
3%	COc1ccc(C(=O)N(CN2CCCC2=O)c2ccc(C)cc2)cc1
-3%	CCOC(=O)CN1C(=O)S/C(=C/c2ccc(OC)c([N+](=O)[O-])c2)C1=O
-13%	COc1ccc(CN2CCNC(=O)C2CC(=O)NCC2CCOCC2)c(C)c1C (stereo not drawn)
3%	Cc1nn(C)cc1C(C(=O)NC1CCCCC1)N(C(=O)Cc1cccs1)c1ccc(C(C)C)cc1 (stereo not drawn)
-14%	CCOc1ccccc1NS(=O)(=O)c1cn(C)c(=O)n(C)c1=O
18%	Cc1c(C)n(CC(O)CNCCO)c2ccccc12 (stereo not drawn)

Next section; the last five above are carried over.
VDR inh	Compound
-3%	CCOC(=O)CN1C(=O)S/C(=C/c2ccc(OC)c([N+](=O)[O-])c2)C1=O
-13%	COc1ccc(CN2CCNC(=O)C2CC(=O)NCC2CCOCC2)c(C)c1C (stereo not drawn)
3%	Cc1nn(C)cc1C(C(=O)NC1CCCCC1)N(C(=O)Cc1cccs1)c1ccc(C(C)C)cc1 (stereo not drawn)
-14%	CCOc1ccccc1NS(=O)(=O)c1cn(C)c(=O)n(C)c1=O
18%	Cc1c(C)n(CC(O)CNCCO)c2ccccc12 (stereo not drawn)
5%	CS(=O)(=O)N(CC(=O)NC1CCCC1)Cc1ccc(Cl)cc1
9%	Cc1cccc(NC(=O)CN(C)C(=O)c2ccc(N3CCCCCC3)c([N+](=O)[O-])c2)c1C
0%	CCCn1c2c(c(O)c(C(=O)Nc3ccc(OCC)cc3)c1=O)CCCC2
4%	CCn1c(SCC(=O)N2CCC(C)CC2)nnc1-c1ccc(S(=O)(=O)N2CCN(C)CC2)cc1
-21%	C=CC[C@@H](CC(=O)N(CCO)Cc1ccccc1)C(=O)N[C@@H](COC(=O)[C@@H](CC=C)CC(=O)OC(C)(C)C)Cc1c[nH]c2ccccc12
-18%	COc1ccc(NC(=S)Nn2cnnc2)cc1OC
10%	CCOC(=O)c1c(C)[nH]c(C)c1S(=O)(=O)NCC(=O)N1CCN(c2ccccc2OC)CC1
-14%	Cc1ccc(NC(=O)/C(=C/c2cccs2)NC(=O)c2ccco2)cc1
4%	O=C(NC1CCCCCC1)c1c(O)c2ccccc2[nH]c1=O
-2%	O=C1NCCCC2c3c(cc(Br)c(O)c3Br)OC12N1CCOCC1 (stereo not drawn)

VDR inh	Compound
10%	COc1cccc2cc(C(C)N(CCCN3CCOCC3)C(=S)Nc3cccc(C)c3C)oc12 (stereo not drawn)
-12%	COC(=O)C1=NN(C(C)=O)C2(CC(=O)N(c3cccc(C)c3)C2=O)C1 (stereo not drawn)
6%	COc1ccc(/C=N/NC(=O)c2nnn(-c3nonc3N)c2CN(C)C2CCCCC2)cc1
8%	COc1ccc(OC)c(CNC(=O)C2CCN(c3nc4ccccc4nc3C(F)(F)F)CC2)c1
-11%	O=C(O)c1cnn(-c2ccccc2)c1-c1ccncc1
-13%	O=C(N/N=C/c1ccc(N2CCOCC2)cc1)c1ccc(NS(=O)(=O)c2cccs2)cc1
4%	Cc1cc(C(F)F)nn1CC(=O)NC1CCCCCC1
-3%	Cc1ccc2nc(NC(=O)CCCC(=O)O)sc2c1
-18%	COc1ccc(-c2sc(Nc3cccc4ccccc34)n[n+]2C)c(C)c1C
-24%	COc1ccc(C(=O)c2c(C)oc3ccc(O)c(CN4CCOCC4)c23)cc1

Three compounds out of the list above, arranged by their value in VDR inh, largest number first:
VDR inh	Compound
6%	COc1ccc(/C=N/NC(=O)c2nnn(-c3nonc3N)c2CN(C)C2CCCCC2)cc1
-12%	COC(=O)C1=NN(C(C)=O)C2(CC(=O)N(c3cccc(C)c3)C2=O)C1 (stereo not drawn)
-18%	COc1ccc(-c2sc(Nc3cccc4ccccc34)n[n+]2C)c(C)c1C

Continued:
VDR inh	Compound
-1%	O=C1c2ccccc2C(=O)N1CCCCc1cn(C[C@H]2CC[C@H](Cn3cc(CCCCN4C(=O)c5ccccc5C4=O)nn3)O2)nn1
-28%	O=C(N/N=C/c1ccccc1F)NC1CCCCC1
?	COc1ccc(C(=O)/C=C/c2ccc(OC(=O)c3cc(OC)c(OC)c(OC)c3)cc2)cc1
25%	N#Cc1cn(CC(=O)N2CCCC2)c2ccccc12
6%	CCN(CC)CCOC(=O)[C@@H](Cc1cccc2ccccc12)C[C@@H]1CCCO1
3%	Cc1ccc(Cl)cc1N1CCN(C(=O)CCn2c(=O)c3cccn3c3cccnc32)CC1
-8%	O=C(N/N=C/c1c[nH]c2ccccc12)c1ccn[nH]1
-6%	Cc1ccc(-c2[nH]ncc2C(=O)c2cccc(F)c2)c(O)c1
-3%	CCCc1cc(=O)[nH]c(SCc2cc(C(=O)OC)c(C)o2)n1
10%	CCSC(SCC)[C@H](O)[C@@H](O)[C@H](O)[C@H](O)CO

VDR inh	Compound
-4%	COc1ccc(S(=O)(=O)N(C)c2c(C)n(C)n(-c3ccccc3)c2=O)cc1OC
5%	CCN(CC(=O)Nc1ccc(S(=O)(=O)N2CCOCC2)cc1)Cc1ccccc1
-3%	Cc1ccc(CNC(=O)c2cc(=O)c3cc(C)cc(C)c3o2)cc1
-10%	CCn1c2c(c(=O)n3ncc(C(=O)N4CCN(c5ccc(C(C)=O)cc5)CC4)c13)CN(Cc1ccc(OC)cc1)CC2
0%	O=c1c(CN2CCN(c3cccc(Cl)c3)CC2)coc2c(Cl)cc(Cl)cc12
-12%	O=C(O)C1C(=O)NCC1c1ccccc1 (stereo not drawn)
-2%	CCOC(=O)c1c(C)[nH]c(C)c1S(=O)(=O)NCC1CCN(Cc2ccccc2F)CC1
?	COc1cc2[nH]c(=S)nc(Nc3ccc(NC(C)=O)cc3)c2cc1OC
50µM*	CC[N+]1(C)CCC(O)(/C=C/c2ccccc2)C(C(=O)/C=C/c2ccccc2)C1 (stereo not drawn)
21%	CCOc1ccc(-c2nnc(-c3cccnc3)o2)cc1OCC

Reprinted from the part before: three compounds, then new ones.
VDR inh	Compound
?	COc1cc2[nH]c(=S)nc(Nc3ccc(NC(C)=O)cc3)c2cc1OC
50µM*	CC[N+]1(C)CCC(O)(/C=C/c2ccccc2)C(C(=O)/C=C/c2ccccc2)C1 (stereo not drawn)
21%	CCOc1ccc(-c2nnc(-c3cccnc3)o2)cc1OCC
0%	Cc1ccc(C(=O)Nc2ccc3[nH]c(=O)[nH]c3c2)c(C)c1
-9%&21%	COc1cccc(CNC(=O)c2ccc(CS(=O)c3ccccc3)o2)c1 (stereo not drawn)
-8%	CCN(CC1COc2ccccc2O1)C(=S)NC1CC2CCC1C2 (stereo not drawn)
0%	Cc1ccc(CN2CCN(C3CCC3)CC2CCO)cc1 (stereo not drawn)
22%	CN(C)S(=O)(=O)c1cccc(NC(=O)CNCc2ccccn2)c1
-6%	O=C(Nc1cccc(C(=O)N2CCOCC2)c1)c1ccc([N+](=O)[O-])cc1
0%	CCOC(=O)c1c(NC(=O)c2cnn3c2NC(c2cccc(OC)c2)CC3C(F)(F)F)sc2c1CCCC2 (stereo not drawn)
-19%	Cc1ccc(C(=O)N2CCOCC2)cc1[N+](=O)[O-]
1%	COc1ccc(C(CNC(=O)c2cc(C)oc2C)N2CCOCC2)cc1 (stereo not drawn)
13%	Cc1ccc(C)c(S(=O)(=O)Nc2ccc(C(N)=O)cc2)c1

VDR inh	Compound
12%	C[n+]1c(/C=C/c2ccc3c(c2)OCO3)ccc2ccccc21
-6%	Cc1ccc2c(c1)N(C(=O)CCC(=O)N1CCN(c3cccc(C)c3C)CC1)CCO2
-3%	CN(C)c1ccc(C(=S)N2CCCC2)cc1Br
-10%	COc1ccccc1NC(=O)NCC1(N(C)C)CCCCC1
6%	Cc1ccc(C(C)C)c(OCC(O)CN2CCN(c3ccccc3F)CC2)c1 (stereo not drawn)
17%	O=C1/C(=C2/NCCN2C2CC(=O)N(c3ccccc3)C2=O)CC/C1=C\c1ccccc1 (stereo not drawn)
21%	COc1ccc(NC(=O)COC(=O)c2cc3c(s2)CCC3)cc1
-21%	O=C(CN1CCOCC1)N1CCCc2ccccc21
10%	CC(=O)Nc1ccc(NC(=O)CSCc2ccccc2Cl)cc1
1%	Cc1cccc(OCCCC(=O)Nc2ccc(S(=O)(=O)Nc3nccs3)cc2)c1C

VDR inh	Compound
1%	Cn1nc(-c2ccc(Cl)cc2)c2cc(C(=O)NCCCN3CCCC3)sc21
-9%	Cc1[nH]c2ccccc2c1SCc1n[nH]c(=S)n1C
4%	COc1ccccc1NS(=O)(=O)c1ccc2oc(SC(C)C(=O)N3CCNC3=O)nc2c1 (stereo not drawn)
19%	Cc1ccc(-c2nnn(CC(=O)N3CCCc4ccccc43)n2)cc1
-2%	O=C(CC1S/C(=N/N=C/c2ccco2)NC1=O)Nc1ccccc1 (stereo not drawn)
-1%	Nc1nc2n(n1)C(c1ccco1)CC(c1ccc(Cl)c(Cl)c1)N2 (stereo not drawn)
-8%	Nc1ccccc1N=Cc1ccc(-c2cccc(Cl)c2)o1
8%	O=C(NC1CC1)c1cccc(NC(=O)C2CC2)c1
-25%	Cc1ccc(S(=O)(=O)/N=C(/NC(=S)Nc2ccccc2)c2ccccc2)cc1
-5%	O=C(Cc1ccc(Cl)cc1)Nc1ccccc1N1CCOCC1

VDR inh	Compound
10%	Clc1ccccc1Cn1nnc2c(NCCN3CCOCC3)ncnc21
-24%	CCC1(C)Cc2c(sc3[nH]c(=S)[nH]c(=S)c23)CO1 (stereo not drawn)
-6%	COC(=O)C1=C(C)NC(=O)/C1=C\c1cc(C)n(-c2ccccc2F)c1C
21%	Cc1ccc(C)c(C(=O)CC2(O)C(=O)Nc3ccccc32)c1 (stereo not drawn)
2%	O=C(NCCS(=O)(=O)NCc1ccc(Cl)cc1)c1ccccc1
-5%	CS(=O)(=O)N(CC(=O)N1CCCC1)c1ccc(OCc2ccccc2)cc1
-2%	COCCn1c(C)cc(O)c(C(c2ccccc2)N2CCN(c3ccc(F)cc3)CC2)c1=O (stereo not drawn)
-2%	Cc1oc2ccc(OCc3ccccc3Cl)cc2c1C(=O)O
16%	O=C(NCCC1=CCCCC1)c1ccc(CN2CCOCC2)cc1
7%	O=C(CN(C(=O)c1csnn1)c1ccc(F)c(Cl)c1)NC1CCCCC1

VDR inh	Compound
16%	Cc1ccn(CCC(=O)NC2CC(C)(C)Cc3c2cnn3-c2ccccc2C)n1 (stereo not drawn)
-7%	C=C(C)CC1(NC(C)c2ccccc2)CCCCC1 (stereo not drawn)
-1%	Cc1csc(=O)n1CCC(=O)OCC(=O)Nc1ncc(Cl)cc1Cl
2%	Cc1ccc(S(=O)(=O)N2CCN(CC(O)c3ccccc3)CC2)cc1 (stereo not drawn)
13%	O=C(CN1C(=O)c2ccccc2C1=O)Nc1ccccc1C(=O)NC1CCCCC1
7%	CCN(CC)S(=O)(=O)c1ccc2c(c1)N(CC(=O)NCCCN1CCN(c3cc(Cl)ccc3C)CC1)C(=O)CO2
2%	COc1ccc(NC(=O)Cn2c(C)cc(=O)c3ccccc32)cc1
1%	Brc1ccc(Oc2nsnc2N2CCOCC2)cc1
11%	O=C(NC(=S)Nc1ccccc1)c1cccs1
-4%	CCOc1ccc(Nc2nc(CC(=O)OC)cc(=O)[nH]2)cc1

VDR inh	Compound
4%	COc1ccc(-c2nnc(SCC(N)=O)n2N)cc1
-12%	COc1ccc(-c2nc(NC(=O)c3ccc(OCC(=O)Nc4ccc(F)cc4)c(OC)c3)sc2C)cc1
-2%	CCCC(=O)Nc1ccc(-c2nc3ncccc3o2)cc1C
-4%	COc1ccc(CNC(=O)[C@H](Cc2ccccc2)NC(=O)C2CCNCC2)cc1
8%	O=C(NCC(=O)N1CCOCC1)c1ccc(Cl)c(Cl)c1
-12%	COc1ccc(-c2nc3c(c(SCC(=O)N4CCOCC4)n2)COC(C)(C)C3)cc1
15%	CC1CCCC(C)N1/N=C/c1ccc(N(C)C)cc1 (stereo not drawn)
?	NS(=O)(=O)c1cccc(NC(=O)c2cccc(Oc3ccccc3)c2)c1
15%	CCOc1ccc(NC(=O)CCS(=O)(=O)c2ccc3nc(C)sc3c2)cc1

Compound activity as filed in PubChem BioAssay.

Not all compounds are listed. The share of hits here may be higher or lower than overall.
